Compound activity (PubChem)
VDR inh: blocks the human vitamin D receptor; P11473; VDR-SRC2-3 peptide fluorescence polarization, 2 h; Potency, µM, inactives show max response, negative = inhibition, most hits filed as inhibitors; 400,000 compounds, 0.93% hits; active means well fitted inhibition curve with a large enough effect; inconclusive means small, poorly fitted or top-dose-only effect, or another doubt; inactive means no such curve, though single readings can be large or run the other way; further: series mostly up to about 120 µM
Target sequence (P11473 whole entry, looked up): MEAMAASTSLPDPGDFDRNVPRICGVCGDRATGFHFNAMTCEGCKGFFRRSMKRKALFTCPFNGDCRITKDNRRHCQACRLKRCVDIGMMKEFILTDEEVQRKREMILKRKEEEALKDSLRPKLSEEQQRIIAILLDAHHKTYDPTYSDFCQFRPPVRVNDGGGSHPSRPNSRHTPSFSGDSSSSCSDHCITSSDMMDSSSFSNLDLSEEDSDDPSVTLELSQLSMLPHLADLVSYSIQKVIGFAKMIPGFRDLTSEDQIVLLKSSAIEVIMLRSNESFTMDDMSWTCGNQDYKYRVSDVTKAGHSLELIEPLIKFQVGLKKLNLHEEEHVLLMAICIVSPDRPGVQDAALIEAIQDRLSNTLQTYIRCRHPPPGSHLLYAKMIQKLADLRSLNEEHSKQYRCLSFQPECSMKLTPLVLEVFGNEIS
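Fluorescence polarization assay of small-molecule disruption of VDR binding to coregulator peptide SRC2-3. Compounds and controls pin-transferred, then read after 2 h incubation at ambient room temperature.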
The depositor's hits bear a star; ? = inconclusive; & = joins results of further samples. On the % scale 0 is the no-effect control and ±100 the full control effect; potency means the concentration at half of the fitted maximal effect.

SMILES	VDR inh
Cc1nc2cnc(N3CCNCC3)nc2n(C)c1=O	11%
CCN1CCN(C(=O)Cc2ccccc2OC)CC1	9%
COc1ccc(S(=O)(=O)N2CCOCC2)cc1NC(=O)COC(=O)Cc1ccccc1	13%
COc1ccccc1N1C(=O)NC(=O)/C(=C/c2ccc([N+](=O)[O-])s2)C1=O	45µM*
COc1cc([C@@H]2c3cc4c(cc3[C@@H](O)C3COC(=O)C32)OCO4)cc(OC)c1O (some centres not stated)	-4%
Cc1ccc2c(C)c3ccc4ccccc4c3c[n+]2c1	-1%
Nc1ccc(C(=O)N/N=C2/CN3CCC2CC3)cc1	-2%
O=C(Nc1ccc2c(c1)OCO2)c1cccn(Cc2cccc([N+](=O)[O-])c2)c1=O	23%
CCCNC(=O)N1[C@H]2CC[C@@H]1C(C(=O)OC)=C(c1c(C)noc1C)C2	-12%
COc1ccc(-c2nc(CN3C(=O)CN=C(c4ccccc4)c4ccccc43)c(C)o2)cc1	2%
COc1ccc(C2SCC(=O)Nc3c2c(=O)[nH]n3C2CCCCCC2)cc1OC (configuration not stated)	-22%
O=C(Nc1ccc(Cl)cc1)Nc1nccs1	-9%
O=C1NC(=O)C(CCc2ccncc2)(CCc2ccncc2)C(=O)N1CCc1ccc(F)cc1	1%
O=C(N/N=C/c1c(O)n(Cc2ccccc2)c(=O)[nH]c1=O)c1ccccc1	-17%
FC(F)(F)c1ccc(CN2CCNCC2)cc1	11%
C=CC(=O)NCNC(=O)C=C	-8%
CC(C)CNC(=O)c1c(N)n(Cc2ccco2)c2nc3ccccc3nc12	-28%
O=C(O)[C@H]1NC[C@H]2C[C@H]21	-18%
O=c1[nH]c(=O)n(-c2ccc(F)cc2)c(O)c1C=NCCN1CCCCC1	9%
N#CCCn1cc(C=C2C(=O)NC(=O)NC2=O)c(-c2ccccc2)n1	-39%
CCCCOC(=O)C1=C(N)OC2=C(C(=O)CCC2)[C@]12C(=O)Nc1ccccc12	1%
CN1C(=O)CN=C(c2ccccc2Cl)c2cc(Br)ccc21	-9%
O=C(O)CCCOc1ccc(Cl)cc1Cl	-3%&6%
COc1cc(/C=C2/SC(=S)N(Cc3ccccc3)C2=O)ccc1OCC(=O)O	89µM*
COc1ccc(OC)c(N2C(=O)NC(=O)C(CCc3ccncc3)(CCc3ccncc3)C2=O)c1	7%
Additional compounds
SMILES	VDR inh
CN(C)CCNC(=O)c1cccn(Cc2cc(C(F)(F)F)cc(C(F)(F)F)c2)c1=O	9%
COc1cc2c(cc1OC)C(C(=O)NC(C)C)C1CCCCN1C2=O (configuration not stated)	6%
N/C(=N/[N+](=O)[O-])N1CCN(C(=O)c2ccc(Cl)cc2)CC1	-13%
COc1ccccc1N1C(=O)CC(=O)NC1=O	-18%
CC[C@]1(O)CC(O[C@@H]2CC(N(C)C)C(O)C(C)O2)c2c(cc3c(c2O)C(=O)c2c(O)cccc2C3=O)C1C(=O)OC (some centres not stated)	32µM*
CC(C)CNc1c2c(nc3ccccc13)CCC2	-16%
Nc1c(C(=O)NCC2CCCO2)c2nc3ccccc3nc2n1Cc1ccco1 (configuration not stated)	8%
CCCCNC(=O)Nc1ccc(C(O)(C(=O)OC)C(F)(F)F)cc1 (configuration not stated)	-2%
Cc1ccnc(NS(=O)(=O)c2ccc(N=Cc3c(O)n(C)c(=O)n(C)c3=O)cc2)n1	-8%
O=C(O)CCn1cc(C=C2C(=O)NC(=O)NC2=O)c(-c2ccc(Br)cc2)n1	-16%
CC(=O)OC1(C)CC(C)C(=O)C(C(O)CC2CC(=O)NC(=O)C2)C1 (configuration not stated)	9%
C[C@]12CCC3C(CC[C@H]4C[C@@H](O)CC[C@]34C)C1C[C@@H](O)[C@@H]2O (some centres not stated)	-10%
Cc1cc(OC(=O)c2cccs2)c2c3c(c(=O)oc2c1)CCCC3	0%
O=P(O)(O)Cc1ccccc1OP(=O)(c1ccccc1)c1ccccc1	1%
Clc1ccc([C@H](Cn2ccnc2)OCc2csc3c(Cl)cccc23)c(Cl)c1	?
CN1Cc2c(c(C#N)c(N)n(C)c2=S)CC1(C)C	-28%
CC(=O)[C@H]1CCC2C3CC[C@H]4C[C@@H](O)CC[C@]4(C)C3CC[C@@]21C (some centres not stated)	-7%
CN1C2C=C(N(C(=O)c3ccc(Cl)cc3)c3ccccc3)CC1CC2 (configuration not stated)	-5%
CCSc1cc(C2C(C#N)=C(N)Oc3n[nH]c(C)c32)c(C)o1 (configuration not stated)	-22%
COc1ccc(CN2CCCCC2c2cccnc2)cc1C (configuration not stated)	4%
CCNc1nc(Cl)nc(NC(C)C)n1	-19%&1%
Cc1nnc2n1-c1ccc(Br)cc1C(c1ccccc1Cl)=NC2	-13%
[S]=[Sb][S][Sb]=[S]	12%
NCCNC[C@@H](N)CCCN=C(N)N[N+](=O)[O-]	-1%
CC(C)(C)CC(C)(C)c1ccc(O)cc1	15%

Some of these compounds in order of heavy-atom count, falling.
SMILES	VDR inh
Cc1cc(OC(=O)c2cccs2)c2c3c(c(=O)oc2c1)CCCC3	0%
Cc1nnc2n1-c1ccc(Br)cc1C(c1ccccc1Cl)=NC2	-13%
CCSc1cc(C2C(C#N)=C(N)Oc3n[nH]c(C)c32)c(C)o1 (configuration not stated)	-22%

Additional records follow.
SMILES	VDR inh
CCC(=O)N1CCN(CCN=Cc2c(O)n(C)c(=O)n(C)c2=O)CC1	0%
CCOP(=O)(OCC)C(NC(=O)c1ccccc1Cl)=C(Cl)Cl	12%
CCCCCn1c(=O)c(C(=O)NCc2ccc(Cl)cc2)c(O)c2ccccc21	-28%
CN1CC[C@]23c4c5ccc(O)c4OC2C(O)C=CC3[C@H]1C5 (some centres not stated)	-13%
COC(=O)C1=C(c2ccc(OC)c(OC)c2)C[C@@H]2CC[C@H]1N2C(=O)NCC1CC1	0%
CN(CCCC(=O)c1cccnc1)N=O	-3%
CC(C)C(=O)c1cn(Cc2ccc(C#N)cc2)c2ccccc12	14%
COC(=O)C1=C(c2ccc(S(C)(=O)=O)cc2)C[C@@H]2CC[C@H]1N2C(=O)NCc1ccc(F)cc1	-13%
Cc1c(C(=O)N2CCC3(CC2)OCCO3)sc2ncnc(N(C)c3ccccc3)c12	-11%
Cc1ccc2c(c1)N(C(=O)CCC(=O)N1CCC3(CC1)OCCO3)CC(C)O2 (configuration not stated)	-14%
CCC1(Cc2ccccc2)C(=O)NC(=S)N(C)C1=O (configuration not stated)	-2%
COc1ccc(OC)c(/C=N/OC(=O)Nc2ccc(Cl)cc2)c1	-14%
C=CCN1C(=O)c2ccccc2Sc2ccc(C(=O)N3CCC4(CC3)OCCO4)cc21	-7%
CCCN(CCC)C(=O)Cc1c(-c2ccc(Cl)cc2)nc2c(Cl)cc(Cl)cn12	-8%
CC1=C(C(=O)O)N2C(=O)[C@@H](NC(=O)CCCC(=O)O)[C@H]2SC1	-20%
Cn1cccc1CN1CCN(C(=O)COc2ccccc2)CC1	12%
CC1(C)C(=O)C=C[C@@]2(C)C1CC(O)[C@]1(C)C2CC[C@@]2(C)C(c3ccoc3)OC(=O)C3O[C@]312 (some centres not stated)	?
CCN(CC)P(=O)(NC(=O)C(Cl)(Cl)Cl)N(CC)CC.[Cl-].[Cl-].[Cl-].[Nd+3]	-7%&5%
COC(=O)C1=C(N)Oc2c(c(=O)oc3ccccc23)[C@]12C(=O)N(C)c1ccccc12	-6%
Cc1onc(-c2ccccc2)c1C(=O)N1CCC2(CC1)OCCO2	0%
CCOC(=O)C1C(=O)N(C)C2(C)CC1c1ccccc1O2 (configuration not stated)	16%
O=c1oc2ccccc2c(O)c1[C@H]1c2ccc(O)cc2Oc2c1c(=O)oc1ccccc21	79µM*
CCCNC(=O)N1[C@H]2CC[C@@H]1C(C(=O)OC)=C(c1ccc(S(C)(=O)=O)cc1)C2	-25%
COc1ccc(NC(=O)N2C[C@@H]3C[C@@H](C2)c2cccc(=O)n2C3)cc1	0%
CC1CC(OC(=O)c2ccccc2)(c2ccccc2)C(C)CN1C (configuration not stated)	11%
CCC[C@@H]1CC2=CC(=O)CC[C@]2(C)[C@@H]2CC[C@@]3(C)[C@H](CC[C@]3(O)CCC(=O)O)[C@H]12	-29%
C/C(=C\c1ccc(N(C)C)cc1)[N+](=O)[O-]	20µM*

By substructure: the entries above with four or more nitrogen atoms.
SMILES	VDR inh
Cc1nc2cnc(N3CCNCC3)nc2n(C)c1=O	11%
Nc1ccc(C(=O)N/N=C2/CN3CCC2CC3)cc1	-2%
O=C1NC(=O)C(CCc2ccncc2)(CCc2ccncc2)C(=O)N1CCc1ccc(F)cc1	1%
O=C(N/N=C/c1c(O)n(Cc2ccccc2)c(=O)[nH]c1=O)c1ccccc1	-17%
CC(C)CNC(=O)c1c(N)n(Cc2ccco2)c2nc3ccccc3nc12	-28%
O=c1[nH]c(=O)n(-c2ccc(F)cc2)c(O)c1C=NCCN1CCCCC1	9%
N#CCCn1cc(C=C2C(=O)NC(=O)NC2=O)c(-c2ccccc2)n1	-39%
COc1ccc(OC)c(N2C(=O)NC(=O)C(CCc3ccncc3)(CCc3ccncc3)C2=O)c1	7%
N/C(=N/[N+](=O)[O-])N1CCN(C(=O)c2ccc(Cl)cc2)CC1	-13%
Nc1c(C(=O)NCC2CCCO2)c2nc3ccccc3nc2n1Cc1ccco1 (configuration not stated)	8%
Cc1ccnc(NS(=O)(=O)c2ccc(N=Cc3c(O)n(C)c(=O)n(C)c3=O)cc2)n1	-8%
O=C(O)CCn1cc(C=C2C(=O)NC(=O)NC2=O)c(-c2ccc(Br)cc2)n1	-16%
CN1Cc2c(c(C#N)c(N)n(C)c2=S)CC1(C)C	-28%
CCSc1cc(C2C(C#N)=C(N)Oc3n[nH]c(C)c32)c(C)o1 (configuration not stated)	-22%
CCNc1nc(Cl)nc(NC(C)C)n1	-19%&1%
Cc1nnc2n1-c1ccc(Br)cc1C(c1ccccc1Cl)=NC2	-13%
NCCNC[C@@H](N)CCCN=C(N)N[N+](=O)[O-]	-1%
CCC(=O)N1CCN(CCN=Cc2c(O)n(C)c(=O)n(C)c2=O)CC1	0%
Cc1c(C(=O)N2CCC3(CC2)OCCO3)sc2ncnc(N(C)c3ccccc3)c12	-11%

An excerpt; rates above refer to the full screens.
